Assay outcomes deposited in PubChem by National Center for Advancing Translational Sciences (NCATS).
VACV Venus inh = qHTS for Stage-Specific Inhibitors of Vaccinia Orthopoxvirus: Venus Reporter Primary qHTS; Vaccinia virus Venus reporter expression, fluorescence; Potency, µM (top dose mostly 36.5 µM), for inactives: top-dose activity change, negative = inhibition, actives largely listed as inhibitors; hit rate 0.46% among 330,000; AID 720580, 2013; active means well fitted inhibition curve with a large enough effect; inconclusive means small, poorly fitted or top-dose-only effect; inactive means no such curve, though single readings can be large or run the other way; tested in A549 cells; also: nearly all actives have a fitted effect of over 30% in size; inactives centre near -10
VACV mCherry inh = qHTS for Stage-Specific Inhibitors of Vaccinia Orthopoxvirus: mCherry Reporter Primary qHTS | Vaccinia virus mCherry reporter infection, fluorescence; about a quarter of the inactives have no number | Potency, µM (doses to about 36.5 µM), for the others: at the highest dose activity change, negative = inhibition, usual class: inhibitors | hit rate 0.63% among 310,000 | AID 720579, 2013; active = well fitted inhibition curve with a large enough effect; inconclusive = small, poorly fitted or top-dose-only effect; inactive = no such curve, though single readings can be large or run the other way; tested in A549 cells; also: nearly all actives have a fitted effect of over 35% in size; inactives centre near -10
Starred values were filed as active, the others as inactive; i = inactive; ? = inconclusive; . = no result given; & = joins results of further samples; [ ] = dose if it differs, or a comment. % is scaled to controls: 0 for no effect and ±100 for the full control effect; potency is read from the fitted curve at half-maximal effect. This is a random part of the collection; overall some 0.82% were active at least once.

The line under a structure holds: VACV Venus inh, VACV mCherry inh
CCCCC[C@@H](/C=C/C=C\C/C=C\C/C=C\CCCC(=O)O)OO
→ -12%[0.293 µM], -15%[0.293 µM]
CCOC(=O)CSc1nc2c(c(=O)n1-c1ccc(OC)cc1)SCC2
→ -1%, -27%
CC(=O)c1ccc2c3c(cccc13)CC2
→ -9%, i
Cc1ccnc(N2CCC(C(=O)NNC(=O)COc3cccc4ccccc34)CC2)n1
→ -6%, i
CC1(C(=O)NC2CCCCCC2)CCN1C(=O)Cc1ccc(-c2ccccc2)cc1 (stereo not given)
→ -11%, -9%
CC(C)N1CCC1(C)C(=O)Nc1nccc2cccnc12 (stereo not given)
→ -13%, i
O=C(CC1C(=O)NCCN1Cc1ccc(-c2ccccc2)cc1)NCCc1ccccn1 (stereo not given)
→ -6%, -5%
CCCn1c(SCc2ccon2)nc2ccccc2c1=O
→ -19%, -29%
COC(=O)CCN(C(=O)c1ccc(N2CCCC2)c([N+](=O)[O-])c1)c1ccccn1
→ -1%, -1%
CCCCCSc1nc2sc3c(c2c(=O)n1-c1ccccc1)CCN(C(C)=O)C3
→ ?, -25%
NS(=O)(=O)c1ccc(CNC(=O)c2ccccc2SCC(=O)N2CCCC2)cc1
→ -14%, -18%
COc1ccc(CN2C(=O)N(c3ccc(F)cc3)C(=O)C2CC(=O)Nc2cc(OC)cc(OC)c2)cc1 (stereo not given)
→ -7%, -10%
CC(=O)Nc1ccc(NC(=O)c2ccc(-c3c(C)noc3C)c3ccoc23)cc1
→ -6%, 18%
COc1ccccc1OCC(=O)N1CCCC(N2CCN(c3ccc(F)cc3)CC2)C1 (stereo not given)
→ -24%, -7%
O=C(Cc1ccccc1)Nc1nonc1NC(=O)c1ccccc1
→ -12%, i
CC(C)c1cc(CN2CCN(C3CCCC3)C(CCO)C2)[nH]n1 (stereo not given)
→ -3%, 1%
Cc1ccc(C2C(C(=O)c3sc(C)nc3C)=C(O)C(=O)N2CCN(C)C)o1 (stereo not given)
→ -2%, -4%
Cc1ccc(S(N)(=O)=O)c(C)c1N1CCCC1=O
→ -9%, i
CN1CC(=O)N2Cc3[nH]c4ccccc4c3C[C@H]2C1=O
→ -14%, -6%
O=[N+]([O-])c1ccc(CSc2ccccn2)cc1
→ -13%, -17%
Cc1cccc(NC(=O)Cn2cnc(S(=O)(=O)N3CCCC3)c2)c1C
→ -9%&-2%, -18%&-7%
Cc1cc(C)n(C(=O)c2cc3sccc3[nH]2)n1
→ -5%, -11%
COc1cccc(-c2nn(C)c3sc(C(=O)NCCc4ccc(Cl)cc4)cc23)c1
→ -12%, -17%
Cc1ccccc1-c1nc2ccccc2c(=O)n1C
→ -7%, -14%
CC(=O)Nc1ccc(S(=O)(=O)N2CCCc3ccccc32)cc1
→ -28%, ?
COCC(C)NS(=O)(=O)c1ccc(C)cc1 (stereo not given)
→ -14%, -20%
O=C(N/N=C/C=C\c1cccc([N+](=O)[O-])c1)c1cccnc1
→ -7%, i
CCN(CC)CCOC(=O)c1c(C)oc2ccc(OC)cc12
→ 9%, 5%
O=C(CCC(=O)Nc1ccccc1Cl)NNC(=O)C1CCCCC1
→ 3%, -9%
O=C(N/N=C/C=C/c1ccccc1)c1cc2c(ccc3ccccc32)o1
→ -6%, .
COc1cc2cc3c(N)c(C(=O)NCc4ccco4)sc3nc2cc1OC
→ -10%, .
CNC(=S)N/N=C/c1ccccc1OCC(=O)O
→ -14%, i
CCOC(=O)c1c(C)sc(-c2c(-c3cc(C)ccc3C)[nH]c3c2c(=O)n(C)c(=O)n3C)c1O
→ 12%, 11%
COc1ccccc1NC(=S)N1CCC(c2nc3ccccc3o2)CC1
→ -12%, -6%
CN(C)c1ccc(-c2nc3ccccn3c2Nc2ccc3c(c2)OCCO3)cc1
→ -6%, -13%
CCCCN1C(=O)C(CC(=O)NCC2CCCCC2)CC(C(=O)N(CC)CC)=C1C (stereo not given)
→ -17%, -9%
c1coc(CNc2ncnc3c2oc2ccccc23)c1
→ -15%, -10%
COC(=O)c1c(-c2ccccc2)csc1NC(=O)c1ccco1
→ -6%, -12%
COC(=O)C1(C(=O)OC)C2CCCCC2N(S(=O)(=O)c2ccc(C)cc2)[C@@H]1CC(C)=O (stereo not given in full)
→ -9%, i
Cc1cc(-c2csc(NCc3ccccc3)n2)c(C)n1C
→ 12%, ?
Cc1cccc(Nc2nc(-c3ccccc3)nc3ccccc23)c1
→ -5%, -19%
CN(CCNC(=O)C1(O)c2ccccc2NC(=O)N1c1ccccc1)Cc1ccccc1 (stereo not given)
→ -4%, -13%
Cc1cc(C(=O)NNC(=S)NC(C)c2ccccc2)cs1 (stereo not given)
→ -11%, i
Cc1ccc(C(=O)C2CCN(S(=O)(=O)c3ccc(C(=O)O)cc3)CC2)cc1
→ 0%, -6%
C/C(=N\NC(=O)c1nnn(-c2nonc2N)c1CSc1ccc(C)cc1)c1ccco1
→ -1%[7.34 µM], i[7.34 µM]
NC(Cc1ccc(Cl)cc1)c1csc(NC(=O)NCCc2ccccc2)n1 (stereo not given)
→ ?, ?
CN(C)S(=O)(=O)c1cccc(NC(=O)CCNC(=O)c2ccccc2Cl)c1
→ -13%, -13%
COc1ccc2sc(-c3ccc(S(C)(=O)=O)cc3)c(-c3ccc4c(c3)OCCO4)c2c1
→ -24%, -21%
O=c1[nH]c(C2CCN(S(=O)(=O)c3ccc(S(=O)(=O)NC4CC4)cc3)CC2)nc2c1nnn2Cc1ccccc1
→ 9%, i
COc1ccc(C2(c3ccc(OC)cc3)NC(=O)N(CC(=O)Nc3ccc(OC)c(OC)c3)C2=O)cc1
→ -11%, i
O=C(CSc1nnc(CNC(=O)c2ccccc2)o1)NCc1ccccc1
→ -10%, 0%
O=S(=O)(NCc1ccc2c(c1)OCO2)c1ccccc1F
→ -10%, i
CCOC(=O)c1ccc(NC(=O)CC2C(=O)OCCN2CC)cc1 (stereo not given)
→ -2%&-3%, -3%
CC(=O)Nc1ccc(S(=O)(=O)NCC2CCC(C(=O)NCCCOC(C)C)CC2)cc1 (stereo not given)
→ 0%, -10%
CC(C)NC(=O)C1(N2C(=O)c3ccccc3C2=O)CCCC1
→ -20%, -18%
CCc1ccc(CNC(=O)C2CCN(c3nn4cc(-c5ccc(F)cc5)nc4s3)CC2)cc1
→ -12%, -9%
O=[N+]([O-])c1ccc2nc(-c3cccnc3)[nH]c2c1
→ -3%, i
COc1ccc(NC(=O)c2oc3ccc(S(=O)(=O)N4CCOCC4)cc3c2C)c(OC)c1
→ -3%&-15%, -16%&-11%
Cc1onc(-c2ccccc2)c1CNC(=O)Nc1cccc(Cl)c1
→ -8%, -17%
CN1CCN(c2ncnc3c2ncn3[C@H]2CN(Cc3ccco3)C[C@@H](CO)O2)CC1
→ -4%, 11%

Continuation:
The line under a structure holds: VACV Venus inh, VACV mCherry inh
COC(=O)c1cc(Cl)c(NC(=O)/C=C/c2ccc(Cl)cc2Cl)cc1OC
→ -27%, -21%
COCCn1c(SCC(=O)Nc2ccc(C)cc2)nc2c(oc3ccccc32)c1=O
→ -8%, -14%
Cc1cc2c(cc1S(=O)(=O)C(C)CC(=O)NCc1ccco1)OCC(=O)N2 (stereo not given)
→ -8%, -14%
CCOC(=O)c1nnn(-c2nn3nnnc3c3ccccc23)c1C
→ ?, 8.9µM*
CCOc1ccc(Nc2nc3c(C)cccc3cc2C#N)cc1
→ -7%, -12%
CC(=O)c1cccc(N2C(=O)CN(S(C)(=O)=O)CC2(C)C(=O)NC2CCCC2)c1 (stereo not given)
→ -1%, -7%
NS(=O)(=O)c1ccc(CNC(=O)c2cccc(S(=O)(=O)N3CCc4ccccc43)c2)cc1
→ -12%, -10%
Cc1ccccc1C(=O)Nc1cccc(-c2ccc3nncn3n2)c1
→ 13%, i
Cc1cccc(NC(=O)/C(C#N)=C\c2cn(CC(=O)O)c3ccccc23)c1
→ -8%, i
CCn1c(=O)n(CC)c2cc(S(=O)(=O)Nc3ccccc3C)c(C)cc21
→ -26%, -21%
O=C(CSc1nc(Nc2ccccc2)nc(N2CCOCC2)n1)Nc1ccc2c(c1)OCCO2
→ -8%, -18%
CC(Oc1ccccc1)C(=O)N1CCC2(CC1)Oc1ccc(F)cc1C(=O)C21CC(c2ccc(Cl)cc2)=NO1 (stereo not given)
→ -18%, -14%
CC(=O)c1ccc2c(c1)N(Cc1ccccc1Cl)C(=O)C(C)S2 (stereo not given)
→ -5%, 33%[activator]
CC(=O)c1cccc(NC(=O)c2cnn(-c3cccc(C)c3)c2-n2cccc2)c1
→ -17%, -22%
Cc1cnc(NC(=O)c2nn(C)cc2[N+](=O)[O-])s1
→ -29%, -19%
COc1ccc(C(=O)Oc2c(CN3CCOCC3)cc(Cl)c3cccnc23)cc1OC
→ ?, ?
CN(C)c1ccc(CNC(=O)c2ccc(CNc3c(N4CCCCC4)c(=O)c3=O)cc2)cc1
→ -7%, 17%
Nc1c(C(=O)N2CCCC2)sc2nc(-c3ccccc3)ccc12
→ -10%, -18%
C[C@@H](C[C@@H](O)[C@H](O)C(C)(C)O)[C@@H]1CC[C@]2(C)C3=CC[C@H]4C(C)(C)C(=O)CC[C@]4(C)[C@H]3CC[C@@]12C
→ 11µM*, ?
COc1cc(C(C)=O)ccc1Oc1ncnc2c1cnn2-c1ccccc1
→ -14%, i
Cc1ccc(CCNC(=O)c2cc(-c3ccccc3)n[nH]2)cc1
→ -26%, -26%
CCC(C)Nc1nc(SC(C(C)=O)C(C)=O)nc(N(C)C)n1 (stereo not given)
→ -11%, .
CCOC(=O)C1=C(C)NC(=O)NC1c1ccc2c(c1)OCCO2 (stereo not given)
→ -5%, -11%
COc1cc(C#Cc2ccc3cc(CCCO)oc(=O)c3c2)cc(OC)c1
→ -28%, i
CS(=O)(=O)Nc1ccc2c(c1)[C@H]1C[C@H](CC(=O)NCc3cccc(F)c3)O[C@@H](CO)[C@H]1O2
→ -10%, -6%
Cc1ccc(N2C(=O)C3NN=C(C(=O)OCc4ccccc4)C3C2=O)c(C)c1 (stereo not given)
→ 2%, -9%
CCOC(=O)[C@H]1[C@H]2COc3ccc(Cl)cc3[C@@H]2N2C(=O)c3cc(C)ccc3NC(=O)[C@@]12C
→ ?, -8%
COC(=O)C1(C)NC(c2ccc(O)cc2)C2C(=O)N(c3ccc(C)cc3)C(=O)C21 (stereo not given)
→ -3%, -17%
COc1ccc(Cl)cc1NC(=O)CSc1cn(CC(=O)N2CCCCC2)c2ccccc12
→ -22%, -2%
Cc1cccc(C(C)C)c1NC(=O)c1ccc2c(c1)CCN2S(C)(=O)=O
→ -4%, -12%
COC(=O)c1ccc(O)c(Sc2cc(C(=O)OC)ccc2O)c1
→ -5%, -1%
Cn1cc(S(=O)(=O)CC(=O)Nc2ccc3c(c2)OCCO3)c2ccccc21
→ -1%, -8%
CC(C)Nc1nnc(SCC(=O)NCc2ccc3c(c2)OCO3)s1
→ -5%, -10%
COc1ccc(C)cc1NC(=O)CNc1ccccc1CN(C)C1CCCCC1
→ -21%, -29%
Cc1ccccc1C(=O)NCCc1csc(-c2ccc(C(F)(F)F)cc2)n1
→ -19%, -5%
Cc1ccc(-c2nc3ccccn3c2Nc2ccc3c(c2)OCO3)cc1
→ -8%, -12%
COCCCNC(=O)c1ccc(NC(=O)c2nsc3ccccc23)cc1
→ -10%[7.34 µM], -14%[7.34 µM]
O=C(Nc1ccc(F)c(Cl)c1)c1csc(COCCO)n1
→ -3%, i
CCCc1nnc(NC(=O)c2nc(SCC)ncc2Cl)s1
→ -4%, -14%
Cc1ccc(S(=O)(=O)NCCc2nnc3ccc(SCc4cccc(F)c4)nn23)cc1
→ -7%, -15%
COc1ccc(-n2nc3c(c2NC(=O)c2ccc(N4C(=O)CCC4=O)cc2)CSC3)cc1
→ -19%, i
Cc1nnc(NC(=O)CSc2nnc(CCNC(=O)c3ccccc3F)n2C)s1
→ -10%, -20%
COc1cccc(C2=CC(=O)C[C@H](c3ccc(Cl)cc3)C2)c1OC
→ ?, ?
Brc1cccc(CNn2cnnc2)c1
→ 13%, -1%
O=C(CC1CCCC1)N1CCCC(Nc2ccc(F)cc2)C1 (stereo not given)
→ -17%, -12%
CC(C)c1ccc(/C=C/C(=O)NC2CCCCC2)cc1
→ -21%, 0%
CC(C)(C)OC(=O)N1CCCC1C(=O)NCCc1ccccc1 (stereo not given)
→ ?, .
O=S(=O)(NCC(c1cccnc1)N1CCN(Cc2ccccc2)CC1)c1ccc(F)cc1 (stereo not given)
→ -12%, -14%
CN(CC(=O)Nc1ccc(F)cc1)C(=O)COC(=O)c1ccccc1
→ -13%, -10%
Clc1ccc(-c2cc3ccccc3nc2N2CCOCC2)cc1
→ -1%, -1%
S=c1[nH]c(-c2ccccc2)cs1
→ -18%, -21%
CCN1CCN(c2c(Cl)cccc2NC(=O)c2ccc3nsnc3c2)CC1
→ -1%[7.34 µM], -19%[7.34 µM]

Looked up by structure from the list above:
The line under a structure holds: VACV Venus inh, VACV mCherry inh
O=S(=O)(NCC(c1cccnc1)N1CCN(Cc2ccccc2)CC1)c1ccc(F)cc1 (stereo not given)
→ -12%, -14%
COc1cccc(C2=CC(=O)C[C@H](c3ccc(Cl)cc3)C2)c1OC
→ ?, ?
S=c1[nH]c(-c2ccccc2)cs1
→ -18%, -21%
Cc1nnc(NC(=O)CSc2nnc(CCNC(=O)c3ccccc3F)n2C)s1
→ -10%, -20%
